INS promoter inh = inhibitors of insulin promoter-driven GFP, primary screen, imaging, TRM-6 cells (human fetal islet line), eGFP reporter, cell count | hit rate 0.9% among 130,000 | inhibition, % at 2 µM | reporter expression induced with tamoxifen | AID 1273, 2008;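 active = inhibition above the mean plus 3 SD, with well images judged a real hit on visual review, cut at about 60% in these data, passing the limit was not always enough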
PKD1 kinase inh = inhibitors of human PKD1 kinase, biochemical, fluorescence polarization. hit rate 0.056% among 200,000. inhibition, %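 (about 10 µM by stock and volumes)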. AID 797, 2007. PKD1 kinase fluorescence polarization assay;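 active = inhibition of 50% or more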;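 also: controls were vehicle for no effect and a reference inhibitor for full effect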
HSV replic up = enhancers of HSV replication in host cells, fold increase, host cell viability. HSV replication augmentation in cells. maximum fold increase. hit rate 0.005% among 220,000. AID 1956, 2009;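 active = peak rise of 1.5-fold or more in the series; tested in PC3 cells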;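 also: first round at 10 µM; read as green reporter fluorescence; hits show the peak of a series up to 25 µM; 1 = signal of infected wells without compound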
GALR2 ag = GALR2 receptor agonists, primary screen, cell-based | Galanin receptor type 2 (Homo sapiens), O43603 | GALR2-expressing cells, agonist activation read-out | activation, %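 (tested at 5 µM)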 | hit rate 0.48% among 140,000;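 active = above mean plus 3 SD of all compounds, about 5% in these data, not always enough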;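 also: 0% = vehicle buffer wells and 100% = reference agonist at full effect; tested in CHO reporter cells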
Target sequence (O43603 whole entry, looked up): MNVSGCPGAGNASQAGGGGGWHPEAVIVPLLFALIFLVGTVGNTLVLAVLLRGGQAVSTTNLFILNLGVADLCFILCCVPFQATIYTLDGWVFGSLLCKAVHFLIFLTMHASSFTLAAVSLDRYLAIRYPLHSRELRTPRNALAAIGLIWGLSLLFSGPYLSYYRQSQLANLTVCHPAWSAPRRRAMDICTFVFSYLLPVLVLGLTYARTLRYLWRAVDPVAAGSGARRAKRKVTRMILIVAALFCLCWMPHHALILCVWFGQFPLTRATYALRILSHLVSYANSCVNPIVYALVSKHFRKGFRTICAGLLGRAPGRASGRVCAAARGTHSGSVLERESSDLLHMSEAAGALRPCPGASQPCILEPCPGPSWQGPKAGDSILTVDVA
RGS16-Gao HTS = modulators of RGS16 binding to Galphao, primary screen, biochemical, human proteins, multiplexed bead flow cytometry | bead-based flow cytometry RGS16-Galphao binding, fluorescence; actives lie on both sides | binding response (% of control), % at 10 µM | hit rate 0.38% among 220,000 | Regulator of G-protein signaling 16 (Homo sapiens) + Guanine nucleotide-binding protein …;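 active = below 25% or above 175%, edge rows of some plates excepted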;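 also: Galphao activated by GDP with aluminum fluoride before binding; 100% = wells without compound and 0% = beads without RGS; some results beyond the cut were filed as inactive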
Target sequence (O15492 whole entry, looked up): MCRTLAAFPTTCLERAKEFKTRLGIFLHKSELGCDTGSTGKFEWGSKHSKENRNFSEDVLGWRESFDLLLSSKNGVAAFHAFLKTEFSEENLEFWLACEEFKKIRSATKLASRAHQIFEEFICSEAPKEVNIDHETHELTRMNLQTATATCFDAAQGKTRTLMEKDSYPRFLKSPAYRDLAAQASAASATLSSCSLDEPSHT
Target sequence (P09471 whole entry, looked up): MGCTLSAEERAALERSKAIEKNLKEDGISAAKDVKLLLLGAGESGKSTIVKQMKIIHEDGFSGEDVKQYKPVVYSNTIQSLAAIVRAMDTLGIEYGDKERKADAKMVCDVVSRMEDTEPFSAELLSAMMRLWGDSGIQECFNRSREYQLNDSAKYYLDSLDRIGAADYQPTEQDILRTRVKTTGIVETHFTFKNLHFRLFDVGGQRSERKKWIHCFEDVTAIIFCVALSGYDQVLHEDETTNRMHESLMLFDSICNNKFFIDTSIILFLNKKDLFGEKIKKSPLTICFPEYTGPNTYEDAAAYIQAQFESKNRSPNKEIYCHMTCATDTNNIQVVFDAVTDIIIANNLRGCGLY
INS promoter inh cell count = also measured in INS promoter inh; calls as there; normalized cell count, %; measured here: cell count, toxicity; reference of the scale not given here;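 cells exposed to compound for 48 h; stained nuclei by imaging scaled within each plate; lower means fewer cells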
HSV replic up primary fold = also measured in HSV replic up; calls as there; fold increase; compound at 10 µM; measured here: primary screen fold increase 10 uM; tested in PC3 cells;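 GFP signal in the first replicate; 1 = infected wells without compound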
An asterisk follows results filed as active; i = inactive; / = no result given.

SMILES	INS promoter inh	INS promoter inh cell count	PKD1 kinase inh	HSV replic up	HSV replic up primary fold	GALR2 ag	RGS16-Gao HTS
O=C(NCCCCCNC(=O)c1ccccn1)c1ccccn1	/	/	-6.0	i	1.03	/	112.1
COc1ccc(N(CC(=O)NCc2ccco2)S(C)(=O)=O)c(OC)c1	/	/	-1.0	i	0.93	/	98.3
COc1cccc(NC(=O)c2oc3ccccc3c2NC(C)=O)c1	-6.2	123.4	8.9	i	0.95	-0.8	97.4
O=C(NCc1ccccc1C(F)(F)F)C1CC(c2ccccc2[N+](=O)[O-])=NO1 (stereo not given)	-53.3	75.0	3.8	i	0.95	-0.8	101.0
COC(C[C@@H](O)[C@H](C)[C@@H](O)COCc1ccccc1)OC	/	/	/	i	0.89	/	100.1
Cc1nn(CC(=O)Nc2nc3ccccc3s2)c(C)c1[N+](=O)[O-]	/	/	1.4	i	0.87	-2.8	106.3
S=c1[nH]nc(C2CC2c2ccc(Cl)cc2)n1-c1ccc(Cl)cc1 (stereo not given)	37.5	81.5	-8.2	i	0.87	-0.6	80.2
CCn1c(Cc2ccccc2)nnc1SCC(=O)Nc1ccccc1F	/	/	-2.8	i	0.95	/	100.5
OC(COCc1ccco1)CN1CCN(c2ccccc2)CC1 (stereo not given)	46.7	152.9	-7.0	i	1.01	-1.7	102.7
Cc1cccc(N2CCN(C(=O)C3CCCCC3)CC2)c1C	/	/	-6.0	i	0.74	-1.0	100.2
CN(CC(=O)Nc1ccc(Cl)cc1)CC(=O)Nc1ccc(F)c(F)c1F	/	/	0.9	i	0.91	-0.5	98.2
COC(=O)CSc1ccc2nnc(-c3ccc(OC)c(OC)c3)n2n1	/	/	2.6	i	0.92	-1.0	104.2
Cc1cccnc1Nc1nc(-c2ccccn2)cs1	-142.9	32.9	2.3	i	0.557	-1.2	101.2
Nc1ncnc2nc(SCCc3ccccc3)[nH]c12	13.0	98.6	2.8	i	0.78	-1.9	104.1
COc1ccnc(Oc2ccc(F)cc2)c1C(=O)N/C=N/OCc1ccccc1	-18.8	127.3	4.0	i	0.9	/	105.7
Cc1ccc(S(=O)(=O)NC(CC(C)C)C(=O)Nc2nccs2)cc1 (stereo not given)	-40.0	57.7	-0.8	i	0.96	-1.2	100.2
CCN(CC)S(=O)(=O)c1cccc(NC(=O)CN2C(=O)c3ccc([N+](=O)[O-])cc3C2=O)c1	20.6	97.1	2.3	i	0.98	-0.9	107.2
CC(=O)N1c2ccccc2C(CBr)=CC1(C)C	/	/	/	i	1.09	/	108.3
Cc1c(CN(C)C)c2c(n1Cc1ccccc1)C(=O)c1ccc(Br)cc1-2	-12.5	104.2	-6.2	i	0.44	-1.8	106.6
CC(=O)NS(=O)(=O)c1ccc(NS(=O)(=O)c2ccccc2[N+](=O)[O-])cc1	/	/	/	i	1.08	/	104.3
COc1ccccc1NC(=O)C1=C(C)Nc2nnnn2C1c1cc(Br)ccc1OC (stereo not given)	-12.5	83.4	-1.9	i	0.78	-0.9	84.2
CCc1ccccc1Nc1nc(N)nc(CSc2nnc3ccccn23)n1	/	/	-8.7	i	1.01	/	92.0
COc1ccc(CCNC(=O)C2CCN(S(=O)(=O)c3c(C)noc3C)CC2)cc1OC	65.5*	68.2*	-3.0	i	0.98	-2.1	97.8
COc1ccc(NS(=O)(=O)c2cc(NC(=O)C3CCCO3)ccc2N2CCCC2)cc1 (stereo not given)	/	/	-10.6	i	0.85	/	95.9
Cc1csc(NC(=O)CCn2c(=O)oc3ccccc32)n1	52.4	78.4	1.2	i	0.98	-0.5	113.2
Later entries:
SMILES	INS promoter inh	INS promoter inh cell count	PKD1 kinase inh	HSV replic up	HSV replic up primary fold	GALR2 ag	RGS16-Gao HTS
CCC(NC(=O)Nn1cnnc1)(C(F)(F)F)C(F)(F)F	21.4	52.7	-5.0	i	1.05	-0.3	108.5
COC(=O)c1cc(COC(=O)c2cccnc2SC)oc1C	/	/	-0.7	i	0.97	-2.5	110.0
COc1ccc(C(=O)NCC(=O)NCC2(N(C)C)CCCCC2)cc1OC	10.8	108.7	-5.8	i	0.96	-2.0	111.8
C=CCn1c(-c2ccccc2)nc2nc3ccccc3nc21	27.6	84.6	1.3	i	0.86	-2.1	99.3
O=c1ccc(NS(=O)(=O)c2ccc(Cl)cc2)cn1Cc1ccc(Cl)c(Cl)c1	-30.0	97.9	-0.1	i	1.12	-1.0	104.3
Cc1cc(NC(=O)CCC(=O)N(CC(=O)NC2CCCC2)Cc2ccc(F)cc2)no1	-17.9	129.6	-2.2	i	1.12	-2.8	97.8
CN1CCN(CCNC(=O)c2cn(Cc3ccccc3F)nn2)CC1	/	/	-1.7	i	1.02	/	107.4
COc1ccc(Cn2nc(-c3ccccc3)c(N3CCCCC3)cc2=O)cc1	/	/	-0.3	i	0.95	/	102.9
CC(=O)Nc1c(NCC(C)C)c2ccccc2oc1=O	-60.0	94.9	-11.3	i	1.02	-3.5	108.0
CC(C)CSc1nnc(N)s1	17.9	112.8	-6.8	i	1.09	-0.9	104.7
COc1cc(NC(=S)N2CCCC(C)C2)c(OC)cc1Cl (stereo not given)	/	/	-0.8	i	0.83	/	108.1
COc1ccc(NC(=O)c2ccc(COc3ccccc3OC)o2)cc1OC	-7.7	123.8	-12.6	i	0.86	-0.6	41.3
Cc1ccccc1C(=O)N/N=C/c1ccncc1	/	/	0.5	i	0.96	-3.5	104.4
Cc1nc([N+](=O)[O-])c(NCCO)n1Cc1ccccc1	/	/	-4.6	i	0.99	/	101.8
Cc1ccccc1S(=O)(=O)NC1OC(=O)C(Cl)=C1Cl (stereo not given)	/	/	8.9	i	0.92	-1.0	108.0
O=C(CSc1nc(-c2ccc(F)cc2)cs1)NC(=O)NCc1ccco1	/	/	4.8	/	/	-2.2	98.0
Cc1ccc(C(=O)NNC2CC(=O)N(c3ccc4c(c3)OCCO4)C2=O)cc1 (stereo not given)	85.0*	49.1*	-2.5	i	1.08	/	95.3
CC(NS(=O)(=O)c1ccc2[nH]c(=O)c(=O)[nH]c2c1)C(=O)O (stereo not given)	0.0	142.1	-2.4	i	1.03	/	87.2
CC1CN=C(N(C(=S)Nc2ccccc2)c2cccc(C(F)(F)F)c2)S1 (stereo not given)	/	/	/	i	1.03	/	107.1
O=C(CSc1nnc(SCc2ccc(F)cc2)s1)Nc1ccc(C(=O)O)cc1	/	/	/	i	1.05	/	95.0
O=C(c1ccccc1-c1nc(-c2ccccc2)no1)N1CCCC1	/	/	4.7	i	0.94	-0.6	102.0
Cc1cccc(N(C)c2cc(C)nc3ncnn23)c1	25.0	143.9	-4.4	/	/	-1.7	100.8
CC(=O)Oc1ccc2c(c1)OC(c1ccccc1)CC21CC(C)(C)NC(=O)N1 (stereo not given)	-6.2	115.4	-7.7	i	0.98	-0.3	87.1
O=c1onc(-c2ccc(Cl)cc2)n1Cc1ccc(F)cc1	29.7	84.8	-11.9	i	0.97	0.2	108.2
O=C(c1ccc(Cl)cc1)c1oc2ccccc2c1CS(=O)c1ccc(Cl)cc1 (stereo not given)	/	/	-3.6	i	0.87	-0.3	97.8
Continuation.
SMILES	INS promoter inh	INS promoter inh cell count	PKD1 kinase inh	HSV replic up	HSV replic up primary fold	GALR2 ag	RGS16-Gao HTS
O=C(COc1ccc(Cl)cc1Br)N1CCN(c2ccccc2)CC1	/	/	-8.9	i	0.977	-2.4	99.8
O=C(/C=C/c1cccc([N+](=O)[O-])c1)N1CCN(Cc2ccc3c(c2)OCO3)CC1	-61.1	105.9	1.7	i	1.07	-1.6	104.5
C=CCN(C1CCCCC1)S(=O)(=O)c1ccc2c(c1)oc(=O)n2C	/	/	0.1	i	1.48	-1.9	112.9
CC1(C)CC(NC(=O)CCc2nnc(CCCCc3ccccc3)o2)CCO1 (stereo not given)	/	/	-4.0	i	1.38	/	101.2
CCN1CCN(C(=S)c2ccc([N+](=O)[O-])cc2)CC1	/	/	3.4	i	1.1	-1.7	89.4
Cc1ccc(C)c(NC(=O)C2CC=CCC2C(=O)O)c1 (stereo not given)	/	/	-13.1	i	0.92	-0.7	129.0
COc1cc(S(=O)(=O)Nc2ccccn2)ccc1F	23.1	58.4	-0.3	i	0.8	-1.1	93.6
O=C1CC(c2ccccc2)CN1C(=O)c1cccnc1 (stereo not given)	/	/	6.2	i	0.96	/	100.3
O=C(Nc1ccccc1)c1ccc(S(=O)(=O)N2CCCC2)cc1	15.6	136.5	-2.5	i	0.88	-0.9	109.4
CCOc1ccc(NC(=O)CC2SC(N)=NC2=O)c([N+](=O)[O-])c1 (stereo not given)	/	/	-3.2	i	0.99	/	100.5
COc1cccc(CNC(=O)C2CCN(S(=O)(=O)N3CC(C)CC(C)C3)CC2)c1 (stereo not given)	-58.1	80.5	-3.5	i	0.9	-2.0	89.3
C=CCn1c(Cc2cccs2)nnc1SCC(=O)c1ccc2ccccc2c1	-46.7	129.0	-7.9	i	0.98	-2.2	52.3
CN=C(Nc1ccc(C)c(C)c1)SC1CC(=O)N(c2ccc(OC)cc2)C1=O (stereo not given)	/	/	0.6	i	0.94	/	110.4
CCN(CC)c1c(-c2ccccc2)c2cc(C)ccc2[nH]c1=O	/	/	-9.2	i	0.96	4.2	79.1
O=C(c1ccco1)c1n[nH]nc1-c1ccccc1	5.3	91.7	0.2	i	0.94	-0.6	101.2
NNC(=O)c1ccc(Cn2cc(Br)cn2)cc1	16.7	116.7	5.7	i	0.69	-0.9	104.8
O=S(=O)(c1ccc2c(c1)OCO2)N1CCN(c2nnnn2-c2ccccc2)CC1	11.5	106.9	-9.1	i	0.88	-1.3	106.8
O=c1nc2ccccc2c2n1CC(CN1CCN(C(c3ccccc3)c3ccccc3)CC1)N2 (stereo not given)	/	/	-8.6	i	0.91	/	100.7
FC(F)(F)c1ccccc1/C=N/Nc1ccccn1	/	/	1.3	i	0.93	/	99.7
C=CCNS(=O)(=O)c1cccc2cc(C(=O)O)c(O)cc12	25.0	159.0	15.5	i	0.99	-3.1	103.8
CCN(C(=O)CSc1cc(C)c2ccc(OC)cc2n1)C1CCS(=O)(=O)C1 (stereo not given)	/	/	/	i	0.77	/	101.3
CC(C)=CCSc1nnc([C@@H](NC(=O)OC(C)(C)C)C(C)C)o1	-93.1	114.2	-3.1	i	0.86	-3.6	95.9
CCN(C(=O)COC(=O)c1[nH]c(=O)[nH]c(=O)c1N)c1ccccc1	/	/	-7.4	i	0.99	/	89.0
Cc1occc1C(=O)N1CCN(Cc2ccccc2)CC1	0.0	139.4	2.5	i	0.92	-1.1	99.0
CC(C1CCN(Cc2cn(C)nc2-c2cccc(Cl)c2)CC1)N1CCOCC1 (stereo not given)	/	/	4.5	i	1.09	/	95.2
COC(=O)c1ccc(NC(=O)Cn2c(-c3nonc3N)nc3ccccc32)cc1	-16.7	116.9	-8.7	i	0.94	/	111.4
Cc1ccc(N2C(=O)C(CN3CCCC3)C2c2ccccc2)cc1 (stereo not given)	16.3	97.3	-7.8	i	0.82	/	101.8
COC(=O)Cc1cc(=O)n2[nH]c(C)cc2n1	25.0	140.1	3.7	i	0.85	-0.2	105.0
CCOC(=O)c1nnn(-c2nc(OC)nc(N3CCCC3)n2)c1-c1ccccc1	-42.1	49.1	4.7	/	/	-1.0	105.0
CC(C)NC(=O)CCCc1c[nH]c2ccccc12	-8.3	128.2	-1.3	i	0.96	/	105.3

Record cards, from the list above. Screens in order: INS promoter inh, INS promoter inh cell count, PKD1 kinase inh, HSV replic up, HSV replic up primary fold, GALR2 ag, RGS16-Gao HTS
Shown for CCOC(=O)c1nnn(-c2nc(OC)nc(N3CCCC3)n2)c1-c1ccccc1 : -42.1, 49.1, 4.7, /, /, -1.0, 105.0
Shown for CCN(CC)c1c(-c2ccccc2)c2cc(C)ccc2[nH]c1=O : /, /, -9.2, i, 0.96, 4.2, 79.1
Shown for CC(C)NC(=O)CCCc1c[nH]c2ccccc12 : -8.3, 128.2, -1.3, i, 0.96, /, 105.3
Shown for FC(F)(F)c1ccccc1/C=N/Nc1ccccn1 : /, /, 1.3, i, 0.93, /, 99.7
Shown for COC(=O)c1ccc(NC(=O)Cn2c(-c3nonc3N)nc3ccccc32)cc1 : -16.7, 116.9, -8.7, i, 0.94, /, 111.4

3 structures out of the list, arranged by count of non-hydrogen atoms, lowest first:
SMILES	INS promoter inh	INS promoter inh cell count	PKD1 kinase inh	HSV replic up	HSV replic up primary fold	GALR2 ag	RGS16-Gao HTS
C=CCN(C1CCCCC1)S(=O)(=O)c1ccc2c(c1)oc(=O)n2C	/	/	0.1	i	1.48	-1.9	112.9
C=CCn1c(Cc2cccs2)nnc1SCC(=O)c1ccc2ccccc2c1	-46.7	129.0	-7.9	i	0.98	-2.2	52.3
COc1cccc(CNC(=O)C2CCN(S(=O)(=O)N3CC(C)CC(C)C3)CC2)c1 (stereo not given)	-58.1	80.5	-3.5	i	0.9	-2.0	89.3

High-throughput results: PubChem, several laboratories
